VACV Venus inh: inhibitors of vaccinia virus (Venus reporter); Vaccinia virus Venus reporter expression, fluorescence; Potency, µM (top dose mostly 36.5 µM), for inactives: top-dose activity change, negative = inhibition, actives largely listed as inhibitors; actives 0.46% (n = 330,000); active means well fitted inhibition curve with a large enough effect; inconclusive means small, poorly fitted or top-dose-only effect; inactive means no such curve, though single readings can be large or run the other way; tested in A549 cells; further: nearly all actives have a fitted effect of over 30% in size; inactives centre near -10
Vaccinia mCherry: inhibitors of vaccinia virus infection (mCherry reporter signal). AID 720579. Potency, µM (doses to about 36.5 µM), without a hit: at the highest dose activity change, negative = inhibition, most hits filed as inhibitors. actives 0.63% (n = 310,000). Vaccinia virus mCherry reporter infection, fluorescence; about a quarter of the inactives have no number; active = well fitted inhibition curve with a large enough effect; inconclusive = small, poorly fitted or top-dose-only effect; inactive = no such curve, though single readings can be large or run the other way; tested in A549 cells; further: nearly all actives have a fitted effect of over 35% in size; inactives centre near -10
* hit, by the source's call; i = inactive; ? = inconclusive; . = no result given. On the % scale 0 is the no-effect control and ±100 the full control effect; potency means the concentration at half of the fitted maximal effect.

(1) CC1CC2C(C(O)CC3(C)C2CCC3(O)C(=O)CO)C2(C)C=CC(=O)C=C12 (stereo not drawn)
(2) Cc1cccc(C)c1NC(=O)CN(C)CC(=O)Nc1ccc(F)c(Cl)c1
(3) Cn1cccc1-c1nc2ccccc2n1C
(4) CC(Oc1ccc(-c2ccccc2)cc1)C(=O)N1CCOCC1 (stereo not drawn)
(5) Cc1noc(NS(=O)(=O)c2ccc(NS(=O)(=O)c3ccc(Cl)cc3)cc2)c1C
(6) CCN(C(=O)CSc1nc(-c2ccccc2)c(-c2ccccc2)[nH]1)C1CCS(=O)(=O)C1 (stereo not drawn)

| assay / entry | 1 | 2 | 3 | 4 | 5 | 6 |
| --- | --- | --- | --- | --- | --- | --- |
| VACV Venus inh | -6% | -19% | -9% | -40% | 5% | -3% |
| Vaccinia mCherry | i | -25% | -4% | . | i | . |

(7) Cc1ccc(OCC(=O)Nc2ccc(N(C)C)cc2)cc1
(8) CCOC(=O)Cn1cnc2c(nnn2-c2ccccc2)c1=O
(9) COC(=O)c1[nH]c2cccc(C)c2c1NC(=O)CN1CCN(C(=O)c2ccco2)CC1
(10) O=C(C1CC(=O)N(c2ccc(Cl)cc2)C1)N1CCCCCC1 (stereo not drawn)
(11) COc1cc(OC)cc(-c2nnc(NC(=O)CCS(=O)(=O)c3ccc(C)cc3)o2)c1
(12) CCOC(=O)c1cc(S(=O)(=O)N2CCN(c3ccc(OC)cc3)CC2)[nH]n1

| assay / entry | 7 | 8 | 9 | 10 | 11 | 12 |
| --- | --- | --- | --- | --- | --- | --- |
| VACV Venus inh | -6% | 6% | -6% | -14% | ? | -8% |
| Vaccinia mCherry | . | i | . | 15% | 7.9µM* | -12% |

(13) CCN(CC)Cc1c(C(=O)N/N=C/c2ccccn2)nnn1-c1nonc1N
(14) CCCc1c(C(=O)N/N=C(/C)c2ccncc2)nnn1-c1nonc1N
(15) O=C(Nc1ccc(N2CCOCC2)nc1)c1ccc(C(F)(F)F)cc1
(16) COc1ccc(-n2c(SCC(=O)NNC(=O)c3ccc(C)cc3)nnc2-c2ccncc2)cc1
(17) COc1ccc(/C=C/C(=O)NCCc2ccc(S(N)(=O)=O)cc2)cc1
(18) COC(=O)c1ccc(C23CC4(C2)[C@H](CN(C)[C@@H]4c2ccccc2)C3c2ccc(C(F)(F)F)cc2)cc1 (stereo partly drawn)

| assay / entry | 13 | 14 | 15 | 16 | 17 | 18 |
| --- | --- | --- | --- | --- | --- | --- |
| VACV Venus inh | -8% | -7% | -29% | -6% | -12% | -4% |
| Vaccinia mCherry | -16% | -13% | -30% | i | i | ? |

(19) CCOC(=O)N1CCN(C(=O)CC(C)S(=O)(=O)c2cc3c(cc2C)NC(=O)CO3)CC1 (stereo not drawn)
(20) O=C(Oc1ccc(-c2nnco2)cc1)c1ccco1
(21) Cc1cc2c(cc1S(=O)(=O)N(CCN(C)C)Cc1ccccc1)OCC(=O)N2
(22) O=S(=O)(c1ccc(NCc2ccc(F)cc2)nc1)N1CCCC1
(23) COc1cccc(CNCc2c(C(=O)O)n(Cc3ccc(C)cc3)c3cc(C)ccc23)c1OC
(24) Cc1nc(C)c(C(=O)N(c2ccccc2F)C(C(=O)NCC2CCCO2)c2ccccc2)s1 (stereo not drawn)

| assay / entry | 19 | 20 | 21 | 22 | 23 | 24 |
| --- | --- | --- | --- | --- | --- | --- |
| VACV Venus inh | -9% | -16% | -16% | -14% | -25% | -9% |
| Vaccinia mCherry | i | i | -20% | -14% | -27% | i |

(25) O=C1CCCc2c1cc(C(=O)NCCCN1CCOCC1)c(=O)n2-c1ccc(Cl)cc1
(26) CCN(CC)CCNC(=O)c1ccc(Cl)c(S(=O)(=O)Nc2ccccc2OC)c1
(27) Cc1ccccc1CN1C(=O)c2ccccc2Sc2ccc(C(=O)NCc3ccccc3)cc21
(28) CCCOC(=O)CSC1=C(C#N)C(c2ccccc2OCC)C(C#N)C(=O)N1 (stereo not drawn)
(29) CSc1nc(-c2ccc(F)cc2)nc2c1Cc1c(CO)cnc(C)c1O2
(30) Cn1c(SCC(=O)Nc2ccccc2C(F)(F)F)nc2c(c1=O)SCC2

| assay / entry | 25 | 26 | 27 | 28 | 29 | 30 |
| --- | --- | --- | --- | --- | --- | --- |
| VACV Venus inh | -8% | 0% | -10% | 3% | -9% | -7% |
| Vaccinia mCherry | -14% | -9% | -16% | -7% | -4% | -9% |

(31) COc1ccc(CNC(=O)C(=O)NCC2OCCN2S(=O)(=O)c2cccs2)cc1 (stereo not drawn)
(32) Cc1c(Cl)cccc1NC(=O)CNc1cccc(S(=O)(=O)N(C)C)c1
(33) CCOC(=O)C1CCCN(c2c(NCCc3ccccc3)c(=O)c2=O)C1 (stereo not drawn)
(34) Cn1c(=O)c2c(ncn2CC(O)CNc2ccc(F)cc2)n(C)c1=O (stereo not drawn)
(35) O=C(CSc1ncc(-c2ccccc2)nn1)NCc1ccco1
(36) Cc1cccc2sc(NNC(=O)C3COc4ccccc4O3)nc12 (stereo not drawn)

| assay / entry | 31 | 32 | 33 | 34 | 35 | 36 |
| --- | --- | --- | --- | --- | --- | --- |
| VACV Venus inh | -12% | -13% | -17% | -11% | -5% | -19% |
| Vaccinia mCherry | i | -25% | -11% | -17% | -11% | ? |

(37) CCOC(=O)C(Cc1c[nH]c2ccccc12)NC(=O)c1ccccc1Br (stereo not drawn)
(38) C/C(=C\c1ccccc1F)C(=O)c1c(C)cc(C)[nH]c1=O
(39) CCC1(CC)NC(=O)NC1=O
(40) CC(C)CN(CCNC(=O)c1cc(=O)[nH]c2ccc(S(=O)(=O)N3CCCCCC3)cc12)CC(C)C
(41) CSc1ncc(/C=C2/C(=O)NC(=O)N(C3CCCCC3)C2=O)cn1
(42) COc1ccc(C2CC(c3ccccc3)=NN2C(=O)COC(=O)c2ccc(Cl)nc2)cc1 (stereo not drawn)

| assay / entry | 37 | 38 | 39 | 40 | 41 | 42 |
| --- | --- | --- | --- | --- | --- | --- |
| VACV Venus inh | 1% | -12% | 10% | -4% | -17% | -17% |
| Vaccinia mCherry | i | i | 4% | -11% | . | -17% |

(43) COc1cccc(/C=C/c2nc(C#N)c(N3CCCCC3)o2)c1
(44) CNC(=O)/C(C#N)=C/c1cn(CC(=O)NCc2ccco2)c2ccccc12
(45) CCOC(=O)c1[nH]c(C)c(C(=O)NC(C)CC)c1C (stereo not drawn)
(46) CN1CCN(C(=O)CC23CC4CC(CC(C4)C2)C3)CC1
(47) COC(=O)c1cc(NC(=O)c2ccc([N+](=O)[O-])cc2)c(=O)oc1C
(48) COC(=O)[C@H](C)NC(=O)Nc1ccc(OC)cc1OC

| assay / entry | 43 | 44 | 45 | 46 | 47 | 48 |
| --- | --- | --- | --- | --- | --- | --- |
| VACV Venus inh | 1% | -6% | -2% | -6% | 3% | -3% |
| Vaccinia mCherry | 2% | i | -10% | -18% | i | -4% |

16 compounds already listed, arranged by SMILES length, descending.
(18) COC(=O)c1ccc(C23CC4(C2)[C@H](CN(C)[C@@H]4c2ccccc2)C3c2ccc(C(F)(F)F)cc2)cc1 (stereo partly drawn)
(19) CCOC(=O)N1CCN(C(=O)CC(C)S(=O)(=O)c2cc3c(cc2C)NC(=O)CO3)CC1 (stereo not drawn)
(16) COc1ccc(-n2c(SCC(=O)NNC(=O)c3ccc(C)cc3)nnc2-c2ccncc2)cc1
(23) COc1cccc(CNCc2c(C(=O)O)n(Cc3ccc(C)cc3)c3cc(C)ccc23)c1OC
(42) COc1ccc(C2CC(c3ccccc3)=NN2C(=O)COC(=O)c2ccc(Cl)nc2)cc1 (stereo not drawn)
(5) Cc1noc(NS(=O)(=O)c2ccc(NS(=O)(=O)c3ccc(Cl)cc3)cc2)c1C
(12) CCOC(=O)c1cc(S(=O)(=O)N2CCN(c3ccc(OC)cc3)CC2)[nH]n1
(47) COC(=O)c1cc(NC(=O)c2ccc([N+](=O)[O-])cc2)c(=O)oc1C

| assay / entry | 18 | 19 | 16 | 23 | 42 | 5 | 12 | 47 |
| --- | --- | --- | --- | --- | --- | --- | --- | --- |
| VACV Venus inh | -4% | -9% | -6% | -25% | -17% | 5% | -8% | 3% |
| Vaccinia mCherry | ? | i | i | -27% | -17% | i | -12% | i |

(26) CCN(CC)CCNC(=O)c1ccc(Cl)c(S(=O)(=O)Nc2ccccc2OC)c1
(37) CCOC(=O)C(Cc1c[nH]c2ccccc12)NC(=O)c1ccccc1Br (stereo not drawn)
(33) CCOC(=O)C1CCCN(c2c(NCCc3ccccc3)c(=O)c2=O)C1 (stereo not drawn)
(22) O=S(=O)(c1ccc(NCc2ccc(F)cc2)nc1)N1CCCC1
(36) Cc1cccc2sc(NNC(=O)C3COc4ccccc4O3)nc12 (stereo not drawn)
(8) CCOC(=O)Cn1cnc2c(nnn2-c2ccccc2)c1=O
(3) Cn1cccc1-c1nc2ccccc2n1C
(39) CCC1(CC)NC(=O)NC1=O

| assay / entry | 26 | 37 | 33 | 22 | 36 | 8 | 3 | 39 |
| --- | --- | --- | --- | --- | --- | --- | --- | --- |
| VACV Venus inh | 0% | 1% | -17% | -14% | -19% | 6% | -9% | 10% |
| Vaccinia mCherry | -9% | i | -11% | -14% | ? | i | -4% | 4% |

(listing goes on)
(49) Cc1ccc(C)c(COc2coc(CN3CCN(C(=O)c4ccco4)CC3)cc2=O)c1
(50) CC(C)N1CCC(C)(C(=O)Nc2cc(-c3ccccc3)nn2C)C1 (stereo not drawn)
(51) CCOC(=O)c1c(C)[nH]c(C(=O)COC(=O)C(C)Oc2ccc(Cl)cc2Cl)c1C (stereo not drawn)
(52) CCc1cc(=O)oc2cc(OC(C)C(=O)NCC3CCC(C(=O)O)CC3)c(Cl)cc12 (stereo not drawn)
(53) Nc1ccc(/C=C/C(=O)c2ccco2)cc1
(54) COc1ccc(-n2ncc(C(=O)Nc3ccc4c(c3)OCCO4)c2C2CCN(C(=O)OC(C)(C)C)CC2)cc1

| assay / entry | 49 | 50 | 51 | 52 | 53 | 54 |
| --- | --- | --- | --- | --- | --- | --- |
| VACV Venus inh | -23% | 1% | -15% | -6% | -5% | -17% |
| Vaccinia mCherry | -19% | i | -11% | -8% | -1% | -21% |

(55) CC1(c2ccc3ccccc3c2)NC(=O)N(CC(=O)N2CCN(c3ccccc3O)CC2)C1=O (stereo not drawn)
(56) Cc1cn(C)c(CC(=O)Nc2ccc(F)cc2Cl)c1C(=O)O
(57) O=C(N/N=C1\CCc2ccccc21)c1ccc(O)cc1
(58) CC(C(=O)Nc1ccccc1)c1ccc(-c2ccccc2)c(F)c1 (stereo not drawn)
(59) O=C(Nc1ccc2c(c1)N(C1CCCC1)C(=O)c1ccccc1S2)c1ccccc1F
(60) O=C(Nc1ccnn1C1CCN(Cc2ccccc2F)CC1)C1CCCC1

| assay / entry | 55 | 56 | 57 | 58 | 59 | 60 |
| --- | --- | --- | --- | --- | --- | --- |
| VACV Venus inh | ? | -6% | -11% | ? | -13% | -11% |
| Vaccinia mCherry | ? | -7% | -6% | . | i | i |

(61) CCOc1ccc(NC(=O)Nc2nc3ccc(S(C)(=O)=O)cc3s2)cc1
(62) O=C(c1cccs1)N1CCCC(N2CCN(c3ccc(F)cc3)CC2)C1 (stereo not drawn)
(63) Cn1c(Cl)c(/C=N/OC(=O)C(C)(C)C)c2ccccc21
(64) CCc1ccccc1Nc1nc(N)nc(COC(=O)C2CCN(C(=O)c3ccc(F)cc3)CC2)n1

| assay / entry | 61 | 62 | 63 | 64 |
| --- | --- | --- | --- | --- |
| VACV Venus inh | -12% | -14% | -19% | -6% |
| Vaccinia mCherry | i | -11% | -11% | i |

Compounds as they come; 0.86% or so of the library scored in one or more.
